# Source: PubChem
# HPGD inh: blocks human HPGD enzyme activity. P15428. purified HPGD, NADH fluorescence kinetic, PGE2 substrate. Potency, µM, without a hit: top-dose activity change, negative = inhibition, actives largely listed as inhibitors. actives 4.3% (n = 150,000). AID 894; active = well fitted inhibition curve with a large enough effect (not every such curve was filed as active); inconclusive = small, poorly fitted or top-dose-only effect, or another doubt; inactive = no such curve, though single readings can be large or run the other way;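 further: top concentration of the series not given in the record; plate controls included wells without enzyme; inactives centre near -10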
# Target sequence (P15428 whole entry, looked up): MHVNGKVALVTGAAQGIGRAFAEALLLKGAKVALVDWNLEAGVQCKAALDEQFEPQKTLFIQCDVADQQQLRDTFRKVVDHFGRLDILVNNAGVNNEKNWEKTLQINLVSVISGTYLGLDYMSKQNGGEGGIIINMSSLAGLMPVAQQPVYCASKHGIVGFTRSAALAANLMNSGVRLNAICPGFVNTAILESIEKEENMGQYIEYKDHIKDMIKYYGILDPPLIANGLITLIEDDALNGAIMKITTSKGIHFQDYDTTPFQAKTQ
#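 NADH formation kinetics: reaction with 30 uM PGE2 and 1 mM NAD+ (final), 20 nM enzyme, Tris-HCl pH 8 with Tween 20, after 15 min compound preincubation at room temperature. Fluorescence change, last versus first of five reads.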
# Active calls of the source: *; ? = inconclusive; & = joins results of further samples. On the % scale 0 is the no-effect control and ±100 the full control effect; potency means the concentration at half of the fitted maximal effect. Some of the compounds tested; the hit share may differ from the screen's.
HPGD inh | compound
-9% | O=C(CCCCCn1c(=S)[nH]c2cc3c(cc2c1=O)OCO3)N1CCN(Cc2ccccc2)CC1
-9% | CCC(C)[C@H](NC(=O)Nc1ccc(C(C)=O)cc1)C(=O)OC (stereo partly specified)
-12% | Cc1ccc(-n2c(C)c([N+](=O)[O-])c3ccc(O)c(CN(C)C)c32)cc1
-29% | CC1CCCN(C(=S)Nc2ccc3nc4n(c(=O)c3c2)CCCCC4)C1 (stereo unspecified)
-20% | Nc1ccc(C(=O)Nc2nc3ccccc3s2)cc1
? | Cc1ccccc1OCc1nc(-c2ccc(NC(=O)c3ccco3)cc2)no1
-12% | O=C(CNC1CCCCCC1)Nc1ccc(S(=O)(=O)NC2CC2)cc1
-10% | O=C(COC(=O)c1ccccc1OCc1ccc(Cl)cc1)NC1CC1
7.9µM* | [O-][n+]1c2c(c3c4non(O)c4ccc31)CCCC2
-17% | CCCCCc1ccc(-c2ccc(=O)[nH]n2)cc1
-2% | Cc1ccc(NC(=O)Cn2cccc2C2=NC(c3ccccc3)CO2)c(C)c1 (stereo unspecified)
28µM* | Cc1cc(C)c[n+](-c2[nH]c(=O)sc2/C=N/NC([S-])=Nc2ccccc2)c1
-9% | Cc1cccc(N(CC(=O)NCCC2=CCCCC2)S(C)(=O)=O)c1C
-12% | Fc1cccc(Cl)c1Cn1nnc2c(N3CCC4(CC3)OCCO4)ncnc21
-23% | CCN(CC)S(=O)(=O)c1ccc(NC2CCCc3ccccc32)nc1 (stereo unspecified)

# Some of these compounds in order of their number in HPGD inh, ascending.
structure	HPGD inh
CC1CCCN(C(=S)Nc2ccc3nc4n(c(=O)c3c2)CCCCC4)C1 (stereo unspecified)	-29%
Nc1ccc(C(=O)Nc2nc3ccccc3s2)cc1	-20%
Cc1ccc(-n2c(C)c([N+](=O)[O-])c3ccc(O)c(CN(C)C)c32)cc1	-12%
O=C(COC(=O)c1ccccc1OCc1ccc(Cl)cc1)NC1CC1	-10%

# The list continues:
HPGD inh | compound
-16% | CCCSc1nc2[nH]ncc2c(=O)[nH]1
-2% | CC1(C)CC[C@]2(C(=O)O)C(O)C[C@@]3(C)C(=CCC4[C@@]5(C)CCC(O)C(C)(C)C5CC[C@@]43C)C2C1 (stereo partly specified)
-8% | O=C1c2ccccc2C(Nc2ccc(S(=O)(=O)N3CCCCC3)cc2)N1c1ccccn1 (stereo unspecified)
-16% | COC(=O)c1ccc(C(=O)Nc2cc(Cl)ccc2Cl)cc1NC(=O)c1ccc(N(C)C)cc1
? | Cc1nnc(-c2ccc(Oc3ccc(Cl)cc3)c([N+](=O)[O-])c2)o1
4% | COC(=O)c1sccc1NC(=O)Cn1cnc2c1c(=O)n(C)c(=O)n2C
-3% | COCCN(Cc1cc2cc(C)c(C)cc2nc1Cl)C(=O)Nc1ccccc1
-19% | O=C(O)CCC1(C(=O)O)OCCc2ccccc21 (stereo unspecified)
-21% | CCN(CC)S(=O)(=O)c1ccc(N/N=C/c2ccc(O)cc2O)nc1
-2% | Cn1c(Cn2c(=O)sc3ccccc32)nnc1SCC(=O)N1CCc2ccccc21
? | COc1ccc(-c2cc(C(=O)Nc3ccccc3SC)no2)cc1OC
? | COc1ccc(/C=C2/C(=O)OCc3cc(OC)c(OC)cc32)cc1
-10% | Cc1ccc2ncc([N+](=O)[O-])n2c1
-8%&-11% | CN(C)/C=N/c1cc(=O)n(C)c(=O)n1CC1CC1
-20% | COc1cccc(C2=Nc3cccc4cccc(c34)N2)c1

# Continuation.
HPGD inh | compound
-4% | O=C(C1CCN(S(=O)(=O)Cc2ccccc2)CC1)N1CCN(c2ncccn2)CC1
-7% | O=C1NC(=Nc2ccccc2)SC1Cc1cccc(Cl)c1Cl (stereo unspecified)
6% | Cc1c(NS(=O)(=O)c2cccc(C(=O)NCc3ccc(Cl)cc3)c2)c(=O)n(-c2ccccc2)n1C
-9% | CCCOc1ccc(C2c3c(oc4ccccc4c3=O)C(=O)N2CCN(CC)CC)cc1OC (stereo unspecified)
? | COc1ccccc1CNc1cc(-c2ccccc2)ccc1OC
-7% | Cc1ccc(-c2noc(C3CCN(S(C)(=O)=O)CC3)n2)o1
-10% | N/C(Cc1cccc2ccccc12)=N\OC(=O)c1cccs1
-10% | CN1C(=S)SC(N(O)C=C2C=CC(=O)C=C2)C1(C)C (stereo unspecified)
-3% | O=C(CN1C(=O)C2(OCCO2)c2ccccc21)c1ccc(F)cc1
-13% | Cc1occc1-c1nc(-c2ccncc2)no1
-12% | CCn1cc(C(=O)OCC(=O)c2cc(C)n(-c3ccccc3)c2C)c(=O)c2ccc(C)nc21
-8% | Cc1cccc(-c2noc(CCC(=O)NCc3ccccc3)n2)c1
-16% | Cc1cc(C)c(C)c(OCC(=O)NCCN(C)C)c1
-1% | CC1CN(C(=O)c2nn(C)cc2[N+](=O)[O-])CC(C)O1 (stereo unspecified)
-5% | COc1ccc(Cn2nnnc2CN(Cc2cc3ccc(C)cc3[nH]c2=O)C2CCCC2)cc1

# Further records.
HPGD inh | compound
-12% | O=C(NC1CCCCC1)C(c1cccs1)N(Cc1cccs1)C(=O)c1ccco1 (stereo unspecified)
-2% | O=c1cc(N2CCCCC2)c(-c2ccccc2)nn1Cc1ccccc1Cl
10% | O=C(O)c1nc2nc(Cl)c(Cl)nc2[nH]1
-4% | Cc1cc(C(=O)Nc2ccc(N3CCOCC3)cc2)c2ccccc2n1
-26% | Nc1nc2c3ccccc3nc(Cc3ccccc3)n2n1
1% | CCN=C(Nc1ccc2c(c1)OCO2)SC1CC(=O)N(c2ccc(OC)cc2)C1=O (stereo unspecified)
-11% | CCCN1CCN(C(=O)Cn2ncc3ccccc32)CC1
0% | CN1C(=O)N(C)C2(c3ccccc3)Nn3c(s/c(=C/c4ccccc4)c3=O)=NC12c1ccccc1 (stereo unspecified)
? | CCCc1cc(NCCCN2CCOCC2)n2c(nc3ccccc32)c1C#N
-2% | Cc1ccccc1C(=O)NCCN=C1NS(=O)(=O)c2ccccc21
-19% | O=C(c1ccccn1)c1cc2ccccc2n1S(=O)(=O)c1ccccc1
? | CCS(=O)(=O)c1ccc(-c2csc(-c3ccccc3Cl)n2)c(Cl)c1Cl
-6% | CC(C)NC(=O)COC(=O)c1cccc(NS(=O)(=O)/C=C/c2ccccc2)c1
-28% | CSc1nc(Cl)c(C#N)c(-c2ccc(C)cc2)n1
-21% | CC(=O)Oc1cc(OC(C)=O)c2c(C)cc(=O)oc2c1

# Carrying on.
HPGD inh | compound
? | CCN(Cc1ccccc1)c1ccc(/C=N/NC(=S)NC(C)C)cc1
-5% | CCOC(=O)c1[nH]c(C)c(/C(O)=C2\C(=O)C(=O)N(CCCN(C)C)C2c2cccnc2)c1C (stereo unspecified)
3% | N=c1c2c(n(Cc3cccc(Cl)c3)c3c1CCC3)CCCC2
? | Cc1ccc(C2N(C)c3ccccc3-c3nc4ccccc4n32)o1 (stereo unspecified)
1% | CCC(C)C(=O)Nc1c2c(nc3c1CCC3)CCCC2 (stereo unspecified)
10µM* | c1coc(-c2nn3c(Cn4nnc5ccccc54)nnc3s2)c1
-12% | CN(C)S(=O)(=O)c1cccc(NC(=S)NC(=O)C2CCCCC2)c1
-15% | COc1ccc(CC(=O)Nc2ccc(-c3noc(-c4cccc(OC)c4)n3)cc2)cc1
-8% | CCOC(=O)N1CCN(C(=O)Cc2ccc(-n3c(=O)[nH]c4ccccc4c3=O)cc2)CC1
? | CS(=O)(=O)N1CCN(c2ccccc2NC(=O)c2ccc(-c3ccc(Br)cc3)o2)CC1
-19% | COc1ccc2nc(SCc3nc(N)nc(Nc4ccccc4)n3)[nH]c2c1
-24% | COC(=O)c1ccccc1NC(=S)NC(=O)c1cccc2ccccc12
-10% | O=C(COC(=O)c1ccc[nH]c1=O)c1ccc(Cl)s1
-6% | COc1ncc2nc(-c3ccc(Cl)cc3)c(=O)n(-c3ccccc3)c2n1
-10% | COCCNC(=O)C(c1ccc(C)o1)N(Cc1ccc(OC)cc1)C(=O)Cn1nnc2ccccc21 (stereo unspecified)

# Next part.
HPGD inh | compound
-2% | CC(=O)NC1=NN(C(C)=O)C2(S1)C(=O)N(C(C)C)c1ccc(C)cc12 (stereo unspecified)
-14% | COC(=O)c1ccc(NC2=CC(=O)CC(C)(C)C2)cc1
-10% | CCOP(=O)(OCC)C(NC(=O)Nc1cccc(Cl)c1)C(N)=O (stereo unspecified)
-7% | COC(=O)CN(c1ccc(OC)cc1)S(=O)(=O)c1c(C)noc1C
-2% | COc1cccc(NC(=O)CSc2nnc(-c3ccoc3C)n2-c2ccccc2)c1
-9% | Cc1cccc(OCC(=O)N/N=C/CC(C)c2ccccc2)c1C (stereo unspecified)
-7% | COC(=O)c1cccc(Oc2nc3c(c(=O)n(C)c(=O)n3C)n2C(C)C)c1
0% | O=C1CN(CC(=O)Nc2ccc(SC(F)F)cc2)CCN1
2µM* | Cc1cccc(OCCn2c(=S)[nH]c3ccccc32)c1
-17% | COc1ccc(-c2cc(C(=O)N3CCOCC3)no2)cc1OC
-4% | CCOC(=O)NC(=O)CSc1nnnn1-c1ccc(C)cc1
-22% | CCn1c(COc2cccc3cccnc23)nnc1SCC(=O)O
-14% | Cc1ccc(NC(=O)c2cccc(N3C(=O)CCC3=O)c2)nc1
-16% | CC1CCN(c2ccccc2NC(=S)NC(=O)c2ccc(-c3cccc([N+](=O)[O-])c3)o2)CC1
-17% | COc1cc(/C=C(\C#N)c2nc(-c3cc4ccccc4oc3=O)cs2)ccc1O

# Further entries
HPGD inh | compound
-12% | Nc1nc(CSC(=S)N2CCN(c3ccccc3)CC2)nc(Nc2ccccc2)n1
-9% | CCC(C)(C)C(=O)Nc1ccc(OC)cc1[N+](=O)[O-]
-16% | CN1CCN(S(=O)(=O)c2ccc(NC(=O)Cc3cccs3)cc2)CC1
? | CC(C)OCCCNC(=O)c1cc2c(=O)n(C)c3ccccc3c2n1C
-16% | CCC(c1nnc(SCC(=O)Nc2ccc(C(=O)Nc3ccccc3OC)cc2)o1)N(C)C (stereo unspecified)
-15% | O=C(NC1CCCCC1)c1cccc(COCC(F)(F)F)c1
-4% | O=S1(=O)C=C(SCc2cccc(Cl)c2)Nc2ccccc21
-11% | CCn1c(SCc2nc(-c3ccccc3)no2)nnc1-c1cccs1
1% | COCCn1c(=O)c2c(nc3n2CCN3c2ccc(C)cc2)n(C)c1=O
-4%&-7% | CC(=O)N1[C@H](C)C=C[C@]1(Cc1ccccc1)C(=O)NCc1cc(F)cc(C(F)(F)F)c1
-12% | O=C(COC(=O)c1n[nH]c2ccccc12)NC(=O)NC1CCCC1
-3% | CCCC(=O)Nc1ccccc1Sc1ncnc2scc(-c3ccccc3)c12
-28% | COc1ccc(C(=O)c2cc3ccc(O)cc3oc2=O)cc1
-9% | CC1CCN(C(=O)C(NS(=O)(=O)c2cccc3nsnc23)c2ccccc2)CC1 (stereo unspecified)
-8% | COc1ccc2c3c(cccc13)OCC2=O

# Three records picked at random from the list so far, as already listed:
HPGD inh | compound
-4%&-7% | CC(=O)N1[C@H](C)C=C[C@]1(Cc1ccccc1)C(=O)NCc1cc(F)cc(C(F)(F)F)c1
-4% | O=S1(=O)C=C(SCc2cccc(Cl)c2)Nc2ccccc21
-16% | CN1CCN(S(=O)(=O)c2ccc(NC(=O)Cc3cccs3)cc2)CC1

# Carrying on:
HPGD inh | compound
-4% | CCOC(=O)c1c2c(n3ccccc13)C(=O)c1ccccc1C2=O
-8% | Cc1cc(C)n(-c2nc3c(c(=O)[nH]c(=O)n3C)n2C(C)C)n1
-2% | Nc1nc(SCc2ccccc2[N+](=O)[O-])c2[nH]cnc2n1
-8% | COc1cccc(NC(=O)c2cn(C)c(=O)c3cc(OC)c(OC)cc23)c1
20µM* | O=C(c1cc2cc(Br)ccc2oc1=O)N1CCCC1
-8% | N/C(=N\S(=O)(=O)c1cccs1)c1ccccc1
-14% | CN(CC(=O)Nc1ccc(Cl)cc1)c1ccc(S(=O)(=O)N2CCCCC2)cc1[N+](=O)[O-]
-16% | CCCC(=O)Nc1nc(C)c(-c2csc(Nc3ccccc3OC)n2)s1
-10% | Cc1nn(C(=O)c2c([N+](=O)[O-])cnn2C)c(C)c1Cl
5% | Cc1ccc2c(c1)nnn2C1CCN(C(=O)C23CC4CC(CC(C4)C2)C3)CC1
-6% | Cc1cc2cc(CNC(=O)c3ccc(S(=O)(=O)N4CCCC4)cc3)ccc2n1C
? | COc1ccc2c(c1)c1nc(SCC(C)C)n(CCO)c(=O)c1n2C
-10% | O=C(NC(=S)Nc1ccc(NC(=O)c2ccco2)cc1)c1ccccc1
-7% | CCOC(=O)c1cn(Cc2ccc(C)cc2)nn1
-3% | N#Cc1c(SCC(=O)N2CCOCC2)nsc1SCC(=O)N1CCOCC1

# Three neighbouring compounds from above, for reference:
HPGD inh | compound
-4% | CCOC(=O)c1c2c(n3ccccc13)C(=O)c1ccccc1C2=O
-8% | Cc1cc(C)n(-c2nc3c(c(=O)[nH]c(=O)n3C)n2C(C)C)n1
-2% | Nc1nc(SCc2ccccc2[N+](=O)[O-])c2[nH]cnc2n1

# (next part)
HPGD inh | compound
3% | CC(Sc1nnnn1C)C(=O)Nc1ccccc1-c1ccccc1 (stereo unspecified)
? | Cc1ccccc1N1CCN(C(=S)c2ccc([N+](=O)[O-])cc2)CC1
-18% | COc1ccc(Cl)cc1C(=O)N1CCN(c2ccccn2)CC1
? | Cc1cc(OCCOc2cccc3cccnc23)cc(C)c1Cl
-5% | c1ccc(CCn2nnnc2C(c2cccs2)N2CCOCC2)cc1 (stereo unspecified)
-9% | Cc1ccc(C)c(C2=CSC3=NS(=O)(=O)CCN23)c1
-12% | CC(C)COP(=O)(c1ccc(N(C)C)cc1)C(O)c1ccccc1F (stereo unspecified)
? | Cc1ccc(N=C2NC(=O)CS2)cc1
